Cruzain Triton – inhibitors of Trypanosoma cruzi cruzain with detergent | purified cruzain, Z-FR-AMC fluorescence, 0.01% Triton | AID 1478 | Potency, µM, for inactives: max response, negative = inhibition, usual class: inhibitors | actives 0.43% (n = 200,000) | P25779; active = well fitted curve in the direction sought with a large enough effect; inconclusive = small, poorly fitted or top-dose-only effect, or another doubt; inactive = no such curve, though single readings can be large; an effect the other way counts as inactive or inconclusive;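 also: plate controls were neutral wells for no effect and buffer without enzyme for full effect; nearly all actives have a fitted effect of over 40% in size; top concentration of the series not given in the record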
Target sequence (P25779 123-467 limits assumed): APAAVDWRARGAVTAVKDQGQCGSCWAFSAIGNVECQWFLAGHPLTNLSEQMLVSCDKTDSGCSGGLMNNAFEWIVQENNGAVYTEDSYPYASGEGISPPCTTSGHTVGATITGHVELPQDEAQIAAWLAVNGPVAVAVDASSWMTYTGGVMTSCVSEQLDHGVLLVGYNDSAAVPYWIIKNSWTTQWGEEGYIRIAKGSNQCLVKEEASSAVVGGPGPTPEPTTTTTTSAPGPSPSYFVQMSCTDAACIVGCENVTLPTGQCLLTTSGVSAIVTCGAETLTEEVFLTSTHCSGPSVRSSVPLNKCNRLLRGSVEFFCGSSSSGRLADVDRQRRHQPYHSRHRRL
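Detergent-containing arm of a paired screen for aggregation-based inhibition: 0.01% Triton X-100 present. Cruzain at 1.5 nM cleaved 2 uM Z-FR-AMC at pH 5.5 with 5 mM DTT; AMC fluorescence gain over 60 s measured activity.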
LASV entry inh – inhibitors of Lassa virus binding or cell entry; Lassa virus pseudotype entry inhibition, cell reporter; control for the full effect not named in the record; AID 540256; actives 1.2% (n = 300,000); Potency, µM (doses to about 37.9 µM), for the others: at the highest dose activity change, negative = inhibition, hits mostly inhibitors; active means well fitted inhibition curve with a large enough effect; inconclusive means small, poorly fitted or top-dose-only effect, or effect the other way; inactive means flat fitted curve, though single readings scatter; tested in HEK293 cells; also: % is scaled to controls: 0 for no effect and ±100 for the full control effect; nearly all actives have a fitted effect of over 50% in size; luciferase read-out
NS1 function inh – blocks influenza NS1 protein function; S. cerevisiae slowed by influenza A NS1, growth recovery by OD600; Potency, µM (top dose mostly 46.1 µM), inactives show at the top dose activity, positive = more growth; actives 0.4% (n = 270,000); also: actives are rising curves; nearly all actives have a fitted effect of over 50% in size
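S. cerevisiae expressing influenza A NS1, grown in glucose, washed, then diluted 1:100 into pH 6.0 -URA galactose medium with 23 nl compound. Growth recovery read as OD600; NS1-free strain serves as control.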
SARS PLpro yeast – inhibitors of SARS-CoV papain-like protease in yeast; S. cerevisiae expressing SARS-CoV PLpro, growth rescue; control for the full effect not named in the record; Potency, µM (top dose mostly 32.9 µM), inactives show top-dose activity, positive = growth rescue; actives 0.19% (n = 330,000); AID 485353; also: 0% is about no effect; nearly all actives have a fitted effect of over 55% in size; growth read by luminescence after 48 h
MARV entry inh – blocks Marburg virus binding to or entry into cells; Potency, µM (doses to about 37.8 µM), for inactives: at the top dose activity change, negative = inhibition, hits mostly inhibitors; actives 1.8% (n = 300,000); Marburg virus pseudotyped entry inhibition, cell reporter; control for the full effect not named in the record; about a third of the inactives were read at about 46 µM; active = well fitted inhibition curve with a large enough effect; inconclusive = small, poorly fitted or top-dose-only effect, or effect the other way; inactive = flat fitted curve, though single readings scatter; tested in HEK293 cells; about a fifth of its hits are not listed in these tables; also: % is scaled to controls: 0 for no effect and ±100 for the full control effect; luciferase read-out
Cruzain inh noDet – blocks cruzain activity in detergent-free assay | purified cruzain, Z-FR-AMC fluorescence, no detergent | Potency, µM, for inactives: max response, negative = inhibition, actives largely listed as inhibitors | actives 2.3% (n = 200,000); active = well fitted curve in the direction sought with a large enough effect; inconclusive = small, poorly fitted or top-dose-only effect, or another doubt; inactive = no such curve, though single readings can be large; an effect the other way counts as inactive or inconclusive;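 also: plate controls were enzyme without inhibitor for no effect and buffer without enzyme for full effect; nearly all actives have a fitted effect of over 40% in size; top concentration of the series not given in the record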
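Detergent-free condition (0.00005% Triton X-100) in acetate buffer pH 5.5 with DTT. 1.5 nM enzyme and compound were pre-mixed 15 min, then 2 uM Z-FR-AMC substrate added; reaction progress from fluorescence change between first and third reads (60 s).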
StopGo reporter – lowers the luciferase signal of an FMDV 2A StopGo reporter; AID 1159524; human cells with a luciferase reporter of 2A StopGo recoding; control for the full effect not named in the record; actives 1.2% (n = 410,000); Potency, µM (doses to about 57.9 µM), for inactives: at the top dose signal change, negative = less light; active = well fitted falling curve with a large enough effect; inconclusive = small, poorly fitted or top-dose-only effect; inactive = no such curve, though single readings can be large or run the other way; tested in HEK293T cells; also: % is scaled to controls: 0 for no effect and ±100 for the full control effect; nearly all actives have a fitted effect of over 45% in size; luciferase light after 4 h
RE007 growth inh – less growth of the S. pombe RE007 Vpr strain. S. pombe RE007 Vpr strain, BacTiter-Glo ATP luminescence, 24 h; control for the full effect not named in the record. Potency, µM (titrated, usually from 92.2 µM), without a hit: at the top dose activity change, negative = less growth. actives 0.21% (n = 360,000). AID 651644; active = well fitted falling curve with a large enough effect; inconclusive = small, poorly fitted or top-dose-only effect; inactive = no such curve, though single readings can be large or run the other way;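 also: % is scaled to controls: 0 for no effect and ±100 for the full control effect; nearly all actives have a fitted effect of over 50% in size; the assay follows cell death caused by Vpr and the record does not say whether a fall means rescue or toxicity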
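Fission yeast RE007 carrying one integrated HIV-1 vpr copy, seeded at OD 0.01 in PMG+AL medium with 23 nL pinned compound. Grown 24 h at 30 degrees; viability read by BacTiter-Glo luminescence after 5 min.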
The depositor's hits bear a star; ? = inconclusive; / = no result given; & = joins results of further samples; [ ] = another dose, or the depositor's remark. Unless noted, calls follow the shape of the dose curve; as a rule, active means well fitted rising curve with a large enough effect; inconclusive means small, poorly fitted or top-dose-only effect; inactive means no such curve, though single readings can be large or run the other way. Potency is read from the fitted curve at half-maximal effect.

SMILES | Cruzain Triton | LASV entry inh | NS1 function inh | SARS PLpro yeast | MARV entry inh | Cruzain inh noDet | StopGo reporter | RE007 growth inh
Cc1cn2c(=O)c(C(=O)NCc3ccc4c(c3)OCO4)cnc2s1 | / | -9% | / | / | 13%[46.1 µM] | / | -10% | -15%
CCSc1nnc(NC(=O)CSC2=NN3CCCC(=O)N=C3S2)s1 | / | ? | 5% | 0% | -29%[46.1 µM] | / | 1% | -1%
Oc1c(Cl)cccc1C=Nc1cc(C(F)(F)F)ccc1N1CCCC1 | -2.5% | 6% | 15% | 2% | 4% | -4% | 1% | 4%
CCOC(=O)N1CCN(S(=O)(=O)/C=C/c2ccccc2)CC1 | 0.5% | 0% | -15% | 2% | ? | 0% | -12% | 0%[3.69 µM]
Cc1c(Cl)cccc1NC(=O)CNS(=O)(=O)c1cccs1 | -1.3% | 2%[46.1 µM] | / | / | / | 5% | 4% | /
Cc1nc2ccc(S(=O)(=O)NC(C(=O)NCc3cccs3)C(C)C)cc2s1 (stereo not drawn) | -3.4% | 14% | 0% | 10% | 17%&17% | -10% | -8% | 1%
COc1ccccc1OCCCCN1CCN(C(c2ccccc2)c2ccccc2)CC1 | -4.3% | 18µM* | -9% | -4% | ? | 7% | -30% | 3%
COc1ccc(OCc2nnc(SC3CCOC3=O)n2-c2ccccc2)cc1 (stereo not drawn) | 2.1% | -7% | -1% | -1% | -1% | -5% | / | 0%
CCOC(=O)C1=C(CC)OC(N)=C(C#N)C1c1ccc(OC)cc1OC (stereo not drawn) | -9.5% | 10% | 3% | -4% | 4% | 5% | -16% | 8%
COc1ccccc1NC(=O)CN1CCN(C(=O)c2ccco2)CC1 | -0.1% | 0% | 4% | -1% | 2% | 1% | 0% | -2%
COCCNCC(O)CON=C1c2ccccc2-c2ccccc21 (stereo not drawn) | / | ? | / | -6% | ? | / | -15% | 6%
NC1=NC(=O)/C(=C/c2cn(CCC(=O)O)nc2-c2ccc(Cl)cc2)S1 | -2.7% | 3% | -6% | 21% | 21% | -4% | -6% | 10%
Cc1ccc2[nH]c(C)c(CCN(Cc3cccnc3)C(=S)NC(C)(C)C)c2c1 | / | 25% | 1% | 3% | ? | / | -20% | 18%
Cc1ccc(NC(=O)C(=O)NCC(c2cccnc2)N2CCOCC2)cc1C (stereo not drawn) | -10.0% | ? | / | / | / | ? | -18% | /
Cc1cccc(N(C(=O)Cn2nnc(-c3ccccc3F)n2)C(C(=O)NC(C)(C)C)c2ccncc2)c1 (stereo not drawn) | / | -1%[46.1 µM] | 5% | 1% | -26%[46.1 µM] | / | -5% | -4%
C=CCN(CC(=O)NCc1ccccc1)C(=O)c1csnn1 | 4.7% | 23% | -1% | -3% | 2% | -7% | 29% | -7%
O=C(NCc1ccccc1)C1CCCN(S(=O)(=O)c2ccc(Br)cc2)C1 (stereo not drawn) | / | -9% | 2% | 7% | 18% | / | -19% | -11%
CCc1ccc(OCc2nnc(SCC(=O)NC3CCCCC3)o2)cc1 | / | / | 1% | 0% | -6%[46.1 µM] | / | 47%[activator] | -5%
CC(=O)Nc1cccc(C(=O)OC(C)C(=O)NC2CCCc3ccccc32)c1 (stereo not drawn) | / | -1% | 5% | 3% | 12% | / | 0% | -4%
CC(C)=C1SC(N2CCN(c3cccc(Cl)c3)CC2)=NC1=O | -5.6% | 6% | -7% | -38% | 0% | -12% | -16% | 26%
O=c1ccc(-c2ccccc2)nn1Cc1ccc(F)cc1Cl | -8.7% | -7%[46.1 µM] | -1% | -3% | -6%&-6%[46.1 µM] | -3% | -16%&0% | 13%
CCCCN1C(=O)CC(Sc2ncccc2C(=O)O)C1=O (stereo not drawn) | / | 6%[46.1 µM] | 5% | 7% | 1%[46.1 µM] | / | -8% | 12%
COc1ccc(-c2nc(C)c(CCNC(=O)c3c(F)cccc3F)s2)cc1 | -13% | -1%[46.1 µM] | / | / | / | -17% | 13% | /
CCOC(=O)c1cc2c(ccn2C)n1CC(=O)N1CCN(c2ccccc2)CC1 | -3.3% | -3% | ? | 6% | -14% | 8% | / | -11%
CCC1=Nc2cc(C(=O)O)ccc2Sc2ccc(Cl)cc21 | -4.9% | -8% | -11% | 19% | 1% | 1% | -11% | -6%
NC1=NC[C@@H](Cc2ccc(O)cc2)N1CCc1cccc2ccccc12 | / | / | -9% | -1% | / | / | -7% | -22%
CCCCOc1ccc(Cc2n[nH]c(=S)n2N)cc1 | -6.6% | 4% | 9% | -33% | -4% | -6% | -7% | 2%
Cc1cccc(C(=O)Nc2ccc3c(c2)C(=O)NC3=O)c1 | / | / | -9% | 2% | / | / | 24% | -3%
COc1ccc2[nH]c(C(=O)O)c(CCNC(=O)/C=C/c3ccc(O)c(OC)c3)c2c1 | / | 13%[46.1 µM] | 3% | 1% | -2%[46.1 µM] | / | -12% | -5%
N#CCOC(=O)c1c2c(nc3ccccc13)CCC2 | / | -11% | / | -1% | -26%[14.2 µM] | / | ? | 7%
COc1ccccc1-n1cnc2cc(C(=O)NCC3CCCO3)ccc21 (stereo not drawn) | 5.9% | 16% | -5% | 0% | 0% | -11% | 11% | -27%
COc1cccc(C(=O)NCCS(=O)(=O)N2CCN(C(=O)c3ccco3)CC2)c1 | / | 27% | / | 0% | ? | / | -4% | 4%
C=CCOc1ccc(CNc2ccc(NC(=O)CCC)cc2)cc1OCC | -0.4% | -22% | 6% | 9% | ? | -9% | -9% | -1%
CN(C)NC(=S)NC1(C)CCS(=O)(=O)C1 (stereo not drawn) | / | -1%[46.1 µM] | -2% | 2% | 15%[46.1 µM] | / | -5% | 2%
CC(C)OC(=O)c1c(F)c(F)c(N2CCOCC2)c(F)c1F | -6.8% | 6% | -26% | 4% | 15% | 6% | / | 2%
O=C(Cn1c(=O)n(CCC(=O)N2CCCCC2)c(=O)c2sccc21)NCc1ccccc1 | / | / | -4% | 0% | / | / | -17% | -4%
Cc1ccc(C)c(OCC(=O)N/N=C/c2c(C)nn(-c3ccccc3)c2Cl)c1C | -1.2% | ? | 1% | -1% | 11% | -27% | -17% | 2%
O=C(NCC(Cl)c1ccc2ccccc2c1)c1c(F)cccc1F (stereo not drawn) | / | / | 4% | 0% | / | / | 4% | -3%
Cc1c(Cl)cccc1NC(=O)CN1CCN(CCO)CC1 | -3.2% | -2% | -6% | 14% | 3% | 22% | 9% | 6%
CCSc1nnc(N)s1 | 1.4% | 1% | ? | 2% | 15% | -2% | 10% | 2%
CCOC(=O)/C(C#N)=C/c1cc2ccccc2nc1N1CCOCC1 | -9.4% | -15% | -4% | 0% | 1% | ? | 3% | -26%
Cc1cccc2nc(-c3ccccc3)nc(N3CCC(O)(c4ccc(Cl)cc4)CC3)c12 | -4.5% | -6% | -45% | -80% | -34% | 13% | -5% | -4%
Cc1cccc(C)c1NC(=O)C1CCCN1S(=O)(=O)c1cccc2nsnc12 (stereo not drawn) | 0.5% | 9%[46.1 µM] | / | / | ? | -10% | -9% | /
Cn1c(CNC(=O)c2ccc(Cl)cc2)nnc1SCC(=O)NC1CCCC1 | / | 12%[46.1 µM] | 6% | -1% | 11%[46.1 µM] | / | -7% | 4%
O=C(Oc1ccc2c(c1)O/C(=C\c1ccncc1)C2=O)c1ccccc1 | -21% | ? | 5% | -17% | -45% | 7% | -2% | 10%
CCn1c(C)nnc1SCC(=O)Nc1ccc(C(C)=O)cc1 | / | / | 0% | 0% | / | / | 13% | 6%
C=CCn1cc(/C=N\NC(=O)c2cc3c(ccc4ccccc43)o2)c2ccccc21 | -0.3% | -27% | 18% | -4% | -22% | 16µM* | -4% | 5%
CCOc1ccc2nc(SCC(=O)Nc3nonc3C)[nH]c2c1 | / | -5% | -3% | 0% | ? | / | -1% | -2%
O=c1c2ccccc2ncn1-c1ccccc1[N+](=O)[O-] | / | / | -1% | ? | / | / | 2% | -7%
O=C(CCc1ccc(S(=O)(=O)N2CCOCC2)cc1)N/N=C/c1cccc(O)c1 | -2.1% | ? | -9% | ? | 24% | 4% | -5% | -14%
CC(C/C=N/NC(=O)COc1cc(Cl)ccc1Cl)c1ccccc1 (stereo not drawn) | -5.3% | -10% | 12% | -8% | 13% | 10% | -6% | -4%
CCOC(=O)CN(c1cccc(C(C)=O)c1)S(C)(=O)=O | -1.4% | 9% | 28% | -1% | 12% | -4% | 8% | 6%
O=C(c1cccnc1)C1Cc2ccccc2C1=O (stereo not drawn) | / | / | -61% | -5% | / | / | 22% | ?
Cc1ccc(NC(=O)CN2C(=O)NC(C)(c3ccc4c(c3)OCO4)C2=O)cc1 (stereo not drawn) | / | ? | / | 1% | ? | / | -7% | -6%
O=C(c1ccco1)N1CCN(C(=O)C2CCN(S(=O)(=O)Cc3ccccc3)CC2)CC1 | -2.7% | 6% | -3% | -8% | 0% | 4% | -13% | -9%
Cc1ccc(NC(=O)CSc2nc3n[nH]c(C)c3c(=N)n2-c2cccc(C)c2)cc1 | -2.1% | -3%[46.1 µM] | / | / | / | ? | -4% | /
COc1cc(C(=O)NNC(=O)COc2ccc(Cl)cc2)ccc1OCC(=O)N1CCOCC1 | / | 0% | / | 0% | -16% | / | -14% | 2%
O=C(N/C(=C/c1cccnc1)C(=O)N1CCOCC1)c1ccccc1Br | -1.8% | 5% | 4% | -19% | 11% | 2% | -12% | -6%
Cc1ccc(Nc2cc(C)nc(NCc3ccccc3)n2)cc1 | -4.3% | 26µM* | -29% | 2% | 8.2µM* | 5% | -28% | 15%
CCOC(=O)CN1CC23C=CC(O2)C(C(=O)NCCc2ccccc2)C3C1=O (stereo not drawn) | 9.0% | / | 3% | 5% | / | -1% | -11% | 4%
c1ccc2c(c1)nc(Nc1ccc3c(c1)OCO3)c1nnnn12 | -2.1% | -3% | ? | -8% | 4% | 25µM* | -21% | -11%

Screening results deposited in PubChem BioAssay by National Center for Advancing Translational Sciences (NCATS).
